# Source: PubChem (several laboratories)
# Beta2AR agonist = beta2AR agonists driving receptor internalization, primary screen, cell-based, FAP fluorogen, flow cytometry; Beta-2 adrenergic receptor (Homo sapiens), P07550; Am2.2-beta2AR cells; reference of the scale not given here; response, % (no concentration beside the values); hit rate 0.43% among 340,000; AID 504454, 2011;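 active = response above a set limit, near 3 SD of response in nonfluorescent compounds, cut at about 42% in these data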;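 also: stock transfer was 100 nL into about 11 µL; a reference agonist was the positive control; negative values mostly stem from fluorescent compounds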
# Target sequence (P07550 whole entry, looked up): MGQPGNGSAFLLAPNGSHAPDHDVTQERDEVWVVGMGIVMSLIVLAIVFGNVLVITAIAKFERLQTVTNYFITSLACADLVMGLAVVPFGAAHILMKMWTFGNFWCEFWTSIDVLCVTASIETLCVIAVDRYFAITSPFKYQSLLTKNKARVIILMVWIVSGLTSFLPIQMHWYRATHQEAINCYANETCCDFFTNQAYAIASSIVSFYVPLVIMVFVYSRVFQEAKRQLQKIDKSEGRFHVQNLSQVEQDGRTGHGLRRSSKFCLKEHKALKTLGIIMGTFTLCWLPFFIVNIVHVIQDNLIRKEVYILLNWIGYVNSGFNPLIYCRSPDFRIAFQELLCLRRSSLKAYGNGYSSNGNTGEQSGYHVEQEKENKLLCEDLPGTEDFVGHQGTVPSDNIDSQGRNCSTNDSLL
# Beta cell apopt = inhibitors of cytokine-induced beta cell apoptosis, primary screen, luminescence; INS-1E cytokine-induced death, ATP luminescence, 48 h; percent of positive-control rescue, neutral wells zero; protection from apoptosis, % (test concentration not listed); hit rate 0.8% among 300,000;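 active = all replicates at 75% or more, or half of them and the mean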;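 also: 0% = cytokine-treated negative control wells and 100% = positive control rescue; higher means more ATP so stronger rescue from cytokine killing; wells of about 40 µL received 100 nL stock; the first replicate is given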
# RanGTP-Imp inh = inhibitors of RanGTP-importin-beta interaction, primary screen, biochemical, FRET, CFP-Ran, YFP-importin-beta, homogeneous. Ran GTPase (GTP-bound) - importin-beta complex. cell-free CFP-Ran/YFP-importin-beta FRET ratio. inhibition, % (test concentration not listed). hit rate 1.1% among 300,000. AID 2216, 2009;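 active = most replicates above 15%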;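 also: 0% = DMSO wells and 100% = Ran loaded with GDP instead of GTP; wells of about 40 µL received 100 nL stock; the first replicate is given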
# Bfl-1 A1 inh = caspase 3/7 activation in MEF A1-2A-BIM cells, primary screen, A1 inhibitor project, cell-based, luminescence, HTS; Caspase-Glo 3/7 luminescence, 3 h; percent of clofoctol response, vehicle zero; caspase activation, % (no concentration beside the values); hit rate 0.066% among 330,000; AID 2462, 2010;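 active = over half of replicate activation scores above 10%, or exactly half above 10 with the replicate mean above 10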;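 also: wells of about 30 µL received 50 nL stock; many hits fall short of the cut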
# Calb FLC = C. albicans growth inhibition with fluconazole, primary screen, CaCi-2 strain, Alamar Blue fluorescence. C. albicans CaCi-2 (fluconazole-resistant clinical isolate) + fluconazole, 48 h. growth inhibition, % (test concentration not listed). hit rate 0.57% among 300,000;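 active = most replicates above 75%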;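 also: all wells also contain fluconazole at 8 µg/ml as a sub-toxic cotreatment; 0% = median of DMSO wells and 100% = median of geldanamycin control wells; wells of about 8 µL received 7.5 nL stock; the first replicate is given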
# LANA-H2A inh = blockers of LANA interaction with H2A/H2B – biochemical, FP readout, HTS, primary screen | Protein LANA1 (Human herpesvirus 8 type P (isolate GK18)), Q9QR71 | hit rate 0.6% among 320,000 | cell-free LANA-H2A/H2B peptide, fluorescence polarization | inhibition, % (no concentration beside the values) | AID 2629, 2010; in the data active = inhibition mostly above about 10%, no sharp cut-off; inactive = mostly below about 6.7%;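 also: stock transfer was 7.5 nL into about 10 µL; 0% = median of vehicle wells and 100% = median of positive control wells; one replicate is shown; the record names a cut of 25% in any replicate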
# UCH37 DUB inh = inhibitors of human UCH37 deubiquitinase, primary screen, biochemical, Ub-AMC cleavage, fluorescence; Ubiquitin carboxyl-terminal hydrolase isozyme L5 (Homo sapiens), Q9Y5K5; purified proteasome/UCH37; inhibition, % (no concentration beside the values); hit rate 0.33% among 330,000; AID 588478, 2011;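 active = mean of two replicates above 20%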;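 also: 0% = compound-free wells with enzyme and 100% = wells lacking proteasome; stock transfer was 100 nL into about 20 µL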
# Target sequence (Q9Y5K5 whole entry, looked up): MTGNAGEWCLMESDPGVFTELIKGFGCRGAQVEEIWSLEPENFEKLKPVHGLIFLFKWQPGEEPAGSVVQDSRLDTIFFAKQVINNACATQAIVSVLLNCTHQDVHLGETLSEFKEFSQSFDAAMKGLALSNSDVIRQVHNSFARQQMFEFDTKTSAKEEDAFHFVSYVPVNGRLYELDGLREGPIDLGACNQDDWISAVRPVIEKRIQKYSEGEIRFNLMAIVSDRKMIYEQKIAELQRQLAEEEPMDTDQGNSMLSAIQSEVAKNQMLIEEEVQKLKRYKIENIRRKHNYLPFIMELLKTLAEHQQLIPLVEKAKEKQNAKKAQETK
#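 System: Proteasome-associated human UCH37 deubiquitinase; Input: 0.15 nM proteasome in added enzyme buffer; Also added: Ub-AMC substrate from 1 µM stock; Incubation: 30 min compound-proteasome preincubation then 25 min substrate reaction, room temperature; Detection: fluorescence, ex 355 nm, em 460 nm; Read-out: % inhibition of Ub-AMC cleavage fluorescence; Benchmarks: no-proteasome and no-compound wells.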
# * = called active by the depositor; . = no result given.
# The line under a structure holds: RanGTP-Imp inh	Calb FLC	Beta2AR agonist	Beta cell apopt	Bfl-1 A1 inh	UCH37 DUB inh	LANA-H2A inh
Cc1ccc(C=NNC(=O)c2cccc(S(=O)(=O)Nc3ccccc3Cl)c2)o1
  .	.	.	.	.	4.7	.
Cc1ccc(C(=O)NN=Cc2cn(Cc3ccccc3)c3ccccc23)cn1
  .	.	.	.	.	0.2	.
O=C(NN=C/C=C/c1ccc2c(c1)OCO2)C(O)c1ccccc1 (stereo not given)
  .	.	.	.	.	-30.7	.
Cc1cccc(N(CC(=O)NN=Cc2ccc(OCC(=O)NCc3ccco3)cc2)S(C)(=O)=O)c1C
  .	.	.	.	.	3.3	.
COc1ccccc1NCC(=O)NN=Cc1cccnc1
  .	.	.	.	.	7.2	.
O=c1c(=Cc2cccn2-c2ccccc2)sc2nc3ccccc3n12
  .	.	.	.	.	-12.6	.
COC(=O)c1ccc(C=NNC(=O)CC(=O)NCCc2ccccc2)cc1
  .	.	.	.	.	5.3	.
CCC12CN3CCN(CC(C3)C1=NNC(=O)c1ccc(Cl)cc1)C2
  .	.	.	.	.	2.1	.
O=C(NN=C/C=C/c1ccccc1)c1cccc(Br)c1
  .	.	.	.	.	3.4	.
O=[N+]([O-])c1ccccc1/C=C\C=NN1CCN(c2ccccc2)CC1
  .	.	.	.	.	3.8	.
Cc1nn(C)cc1C=NNC(=S)Nc1ccc(Cl)cc1Cl
  .	.	.	.	.	1.8	.
Clc1ccc(N2CCN(N=Cc3cccnc3)CC2)cc1
  .	.	.	.	.	0.0	.
S=c1[nH]nc(C2CCCCC2)n1N=Cc1ccc(Br)s1
  .	.	.	.	.	0.3	.
COc1cccc(C=Nn2c(C3CCCCC3)n[nH]c2=S)c1OC
  .	.	.	.	.	2.7	.
Fc1ccc(-c2ccc(C=Nn3cnnc3)o2)cc1Cl
  .	.	.	.	.	2.7	.
COC(C(=O)NN=C(C)CC(=O)Nc1ccc(N(C)C)cc1)c1ccccc1 (stereo not given)
  .	.	.	.	.	-1.2	.
CCN(CC)c1ccc(C=NOCC(=O)Nc2cccc(C)c2)cc1
  .	.	.	.	.	-5.3	.
COc1cccc(C=NNC(=O)c2cc(-c3cccn3C)n[nH]2)c1
  .	.	.	.	.	-0.5	.
CN(C)C=NS(=O)(=O)c1ccc(Cl)c(Cl)c1
  .	.	.	.	.	0.4	.
CC(NC(=O)C(=O)NN=Cc1ccccc1)c1ccccc1 (stereo not given)
  .	.	.	.	.	5.3	.
COc1ccc(C(=O)NN=Cc2ccc(OC)c(COc3ccc(F)cc3)c2)cc1
  .	.	.	.	.	-3.1	.
NC(=NOC(=O)c1ccc(Cl)cc1)c1nonc1N
  .	.	.	.	.	2.2	.
NC(=S)NN=Cc1cccc(Br)c1
  .	.	.	.	.	0.3	.
O=C(O)c1cccc(NC(=S)NN=Cc2c[nH]c3ccccc23)c1
  .	.	.	.	.	17.8	.
CCc1ccc(C=Nn2cnnc2)cc1
  .	.	.	.	.	0.8	.
COc1cc(C=NNc2ccc(Cl)c(C(=O)O)c2)ccc1OCC(=O)N1C(C)CCCC1C (stereo not given)
  .	.	.	.	.	4.7	.
COc1cc(C(C)=NNC(=O)CSc2nc3ccccc3n2C)ccc1O
  .	.	.	.	.	5.3	.
CC(=O)Nc1ccc(-c2csc(NN=C(C)c3ccccc3)n2)cc1
  .	.	.	.	.	0.8	.
COc1cccc(C=Nn2c(-c3ccco3)nc3ccccc3c2=O)c1
  .	.	.	.	.	7.4	.
CCNC(=S)NN=Cc1cn(Cc2ccccc2F)c2ccccc12
  .	.	.	.	.	8.9	.
COc1ccc(OCC(=O)NN=Cc2ccncc2)cc1
  .	.	.	.	.	2.6	.
O=C(NN=Cc1cc(Br)c(O)c(Br)c1O)c1cccnc1
  .	.	.	.	.	5.4	.
O=C(Cn1nc2ccccc2n1)NN=Cc1ccc(F)cc1
  .	.	.	.	.	2.5	.
Cc1nn(C(C)C(=O)NN=Cc2ccc(N(C)C)cc2)c(C)c1[N+](=O)[O-] (stereo not given)
  .	.	.	.	.	8.7	.
Cc1ccc(-c2cc(C(=O)NN=Cc3cccnc3)n[nH]2)o1
  .	.	.	.	.	3.4	.
CCC(C)=NNC(=O)CNC(=O)c1ccc(Cl)cc1Cl
  .	.	.	.	.	4.5	.
CCCc1ccc(-c2cc(C(=O)NN=Cc3ccc([N+](=O)[O-])o3)c3ccccc3n2)cc1
  .	.	.	.	.	3.3	.
CNC(=O)N(O)C1N(N=Cc2cccs2)C(=S)SC1(C)C (stereo not given)
  .	.	.	.	.	12.9	.
Cc1cc(=O)[nH]c(NN=Cc2ccc(Cl)c([N+](=O)[O-])c2)n1
  .	.	.	.	.	3.4	.
CCOc1ccc(C=NNC(=O)c2ccccc2Cl)cc1CN1CC2CC(C1)c1cccc(=O)n1C2 (stereo not given)
  .	.	.	.	.	6.2	.
O=c1nccc(NN=Cc2cccc(O)c2)[nH]1
  .	.	.	.	.	11.8	.
COc1ccc(O)c(C=Nc2nc3ccccc3n2C)c1
  .	.	.	.	.	3.7	.
CC(=N/N=C1/NC(=O)CC(C(=O)O)S1)c1cccs1 (stereo not given)
  .	.	.	.	.	12.1	.
S=C(NN=Cc1ccc2ncccc2c1)Nc1ccccc1
  .	.	.	.	.	6.0	.
CC(=NNC(=O)COc1ccc(C(C)(C)C)cc1)c1ccc(OC(F)F)cc1
  .	.	.	.	.	0.6	.
CCC1CCCC1=NNC(=O)c1ccc(Cl)cc1 (stereo not given)
  .	.	.	.	.	0.3	.
COC(=O)C(=NNc1ccccc1)Sc1nnc(-c2ccc(OC)cc2)n1C
  .	.	.	.	.	7.0	.
CC(C)(C)c1ccc(C=NNC(=O)Cc2c[nH]c3ccccc23)cc1
  .	.	.	.	.	1.3	.
Oc1cccc(C=NNc2cc(N3CCCC3)nc(N3CCCC3)n2)c1
  .	.	.	.	.	-1.3	.
Cc1cc(C=NNC(=O)C(=O)NCc2ccccn2)c(C)n1-c1cccc(Br)c1
  .	.	.	.	.	9.5	.
Cc1nn(-c2ccccc2)c(Cl)c1C=NNC(=O)c1ccn[nH]1
  .	.	.	.	.	3.0	.
Oc1ccc(Nc2ccc3ccccc3c2)cc1
  .	.	.	.	.	-23.6	.
CC(=NNc1ccc(Cl)c(C(=O)O)c1)c1cccc2ccccc12
  .	.	.	.	.	7.3	.
S=c1[nH]nc(COc2ccccc2)n1N=C/C=C/c1ccccc1
  .	.	.	.	.	3.8	.
CCc1n[nH]c(=S)n1N=Cc1ccccn1
  .	.	.	.	.	2.4	.
O=C1CCCC1=c1sc(=Cc2cccnc2)c(=O)n1-c1ccccc1
  .	.	.	.	.	3.3	.
COc1ccc(Cl)cc1NC(=O)CC(C)=NNC(=O)c1ccccc1[N+](=O)[O-]
  .	.	.	.	.	3.6	.
CCN(CC)C(=N)C(C#N)=NNc1ccccc1
  .	.	.	.	.	13.9	.
COc1ccc(C(C)=NNC(=O)CNC(=O)CCc2ccccc2)c(OC)c1
  .	.	.	.	.	4.7	.
COc1ccc(C(C)=NNC(=O)c2ccccc2N)cc1
  .	.	.	.	.	-2.0	.

# Single records, from the list above. Screens in order: RanGTP-Imp inh | Calb FLC | Beta2AR agonist | Beta cell apopt | Bfl-1 A1 inh | UCH37 DUB inh | LANA-H2A inh
# Listed for COc1ccc(C(C)=NNC(=O)c2ccccc2N)cc1 = . | . | . | . | . | -2.0 | .
# Listed for COc1cccc(C=Nn2c(-c3ccco3)nc3ccccc3c2=O)c1 = . | . | . | . | . | 7.4 | .

# Next part
# The line under a structure holds: RanGTP-Imp inh	Calb FLC	Beta2AR agonist	Beta cell apopt	Bfl-1 A1 inh	UCH37 DUB inh	LANA-H2A inh
COc1ccc(Br)cc1C=NNc1ccccn1
  .	.	.	.	.	2.2	.
NC(=O)Cn1cc(C=NNC(=O)c2ccc(Cn3cc(Cl)cn3)o2)c(-c2ccccc2)n1
  .	.	.	.	.	-25.5	.
CC(=O)Nc1ccc(S(=O)(=O)NN=Cc2ccc(C)s2)cc1
  .	.	.	.	.	4.1	.
Clc1ccc(C(Cc2nc3ccccc3[nH]2)=NNc2ccccc2)cc1
  .	.	.	.	.	1.0	.
CCOc1ccc(C=NNC(=O)Cc2csc(Nc3cccc(C(F)(F)F)c3)n2)c(OCC)c1
  .	.	.	.	.	2.1	.
O=C(O)c1cccc(-n2cccc2C=NO)c1
  .	.	.	.	.	2.1	.
Oc1ccc(C=Nn2c(-c3ccccc3)n[nH]c2=S)cc1
  .	.	.	.	.	6.1	.
CCCCCC(=O)ON=C(C)c1ccn(S(=O)(=O)c2ccccc2)c1
  .	.	.	.	.	6.5	.
O=C(NN=Cc1c[nH]c2ccccc12)c1cc(-c2ccc3ccccc3c2)n[nH]1
  .	.	.	.	.	-30.7	.
O=S(=O)(N=C(c1ccccc1)N1CCCCC1)c1ccccc1
  .	.	.	.	.	0.9	.
COc1cc(C=NNC(=O)c2cc(-c3ccccc3)nc3ccccc23)cc(OC)c1O
  .	.	.	.	.	5.8	.
CC(C)c1ccc(C=NNC(=O)C2CCCC2)cc1
  .	.	.	.	.	3.5	.
O=C(NN=Cc1cc(Br)cc(Br)c1O)c1cccc(N2CCCC2=O)c1
  .	.	.	.	.	-0.6	.
COc1ccc2oc(=O)c(C(C)=NNc3ccccc3)cc2c1
  .	.	.	.	.	-8.1	.
C/C(C=NNC(=O)C(O)c1ccccc1)=C\c1ccccc1 (stereo not given)
  .	.	.	.	.	1.4	.
COc1cccc(C=NNC(=O)CN(CCc2ccccc2)S(=O)(=O)c2ccc(NC(C)=O)cc2)c1
  .	.	.	.	.	4.6	.
COC(=O)c1ccc(COc2ccc3c(C)c(C)c(=O)oc3c2C)o1
  .	.	.	.	.	-6.2	-2.6
C=C(C)COc1ccc(-c2nc(N)ncc2-c2ccc(OC)cc2)c(O)c1
  .	.	.	.	.	1.3	-3.3
O=C(CSc1nc(N2CCCCC2)nc(N2CCCCC2)n1)N1CCc2ccccc21
  6.2	-5.1	.	.	.	3.4	.
Cc1ccc2c(NC(=O)C3CC3)c(C)ccc2n1
  1.4	6.5	.	.	.	1.3	.
COc1cccc(C(=O)NC2C(=O)N3C(C(=O)O)=C(COC(C)=O)CSC23)c1 (stereo not given)
  .	.	14.0	-2.0	-0.5	.	.
C=CCC[C@@H](Cc1ccc(F)cc1)C(=O)OC[C@@H](Cc1c[nH]c2ccccc12)NC(=O)[C@@H](CC=C)CC(=O)N[C@@H](CO)Cc1ccccc1
  .	.	-1.3	-1.4	0.9	.	.
Cc1ccc(S(=O)(=O)Nc2c(C)n(C)n(-c3ccccc3)c2=O)cc1C(=O)NCc1ccco1
  .	.	-9.4	.	.	3.2	.
CC(C)(c1ccccc1)c1ccc(OCc2ccc(C(=O)O)o2)cc1
  .	.	7.0	.	.	2.5	.

# Not all compounds are listed; the hit share may differ from the screen's.
